Vaccinia Venus: vaccinia inhibition (Venus reporter); Vaccinia virus Venus reporter expression, fluorescence; Potency, µM (top dose mostly 36.5 µM), inactives show top-dose activity change, negative = inhibition, most hits filed as inhibitors; 330,000 tested, 0.46% active; AID 720580; active means well fitted inhibition curve with a large enough effect; inconclusive means small, poorly fitted or top-dose-only effect; inactive means no such curve, though single readings can be large or run the other way; tested in A549 cells; further: nearly all actives have a fitted effect of over 30% in size; inactives centre near -10
VACV mCherry inh: vaccinia inhibition (mCherry reporter). Potency, µM (titrated, usually from 36.5 µM), without a hit: top-dose activity change, negative = inhibition, most hits filed as inhibitors. Vaccinia virus mCherry reporter infection, fluorescence; about a quarter of the inactives have no number. 310,000 tested, 0.63% active; active = well fitted inhibition curve with a large enough effect; inconclusive = small, poorly fitted or top-dose-only effect; inactive = no such curve, though single readings can be large or run the other way; tested in A549 cells; further: nearly all actives have a fitted effect of over 35% in size; inactives centre near -10
Starred values were filed as active, the others as inactive; i = inactive; ? = inconclusive; · = not tested or not shown; [ ] = dose if it differs, or a comment. On the % scale 0 is the no-effect control and ±100 the full control effect; potency means the concentration at half of the fitted maximal effect. This is a random part of the collection; overall some 0.87% were active at least once.

Order of results – VACV mCherry inh | Vaccinia Venus
> CC(=O)Nc1ccc(S(=O)(=O)CCC#N)cc1
→ -6% | 1%
> CCN(CC(=O)Nc1c(F)cccc1F)C(=O)c1cc(S(=O)(=O)N(CC)CC)ccc1N1CCCCC1
→ -11% | -13%
> CCN1CCN(Cc2nc3cc(NC(=O)c4ccccc4[N+](=O)[O-])ccc3n2CC)CC1
→ -11% | -7%
> O=C(NCCCN1CCOCC1)c1cc(-c2cccs2)on1
→ -24% | -26%
> CCn1c(SCC(=O)OC)nc2cc(S(=O)(=O)N3CCOCC3)ccc21
→ -15% | -6%
> Cc1ccc(Cn2ccc(NC(=O)c3cc(-c4ccco4)on3)n2)cc1
→ -13% | -4%
> Cc1ccc2nc(NC(=O)C3CCN(S(=O)(=O)c4cccnc4)CC3)sc2c1
→ ? | -28%
> COc1cccc(CN(C)C(=O)c2ccc(S(=O)(=O)Nc3ccccc3F)cc2)c1OC
→ i | 0%
> CCC(Sc1nc2nccnc2c(=O)n1Cc1ccc(Cl)cc1)C(=O)NC1CCCCC1 (stereo not given)
→ -8% | -10%
> CCc1ccc(NC(=O)N2CCN(c3ccccc3)CC2)cc1
→ -10% | -27%
> Cc1ccc(O)c(NC(=O)c2cccc(NC(=O)c3ccco3)c2)c1
→ -32% | -23%
> Cn1c(=O)c2[nH]c(SCCN)nc2n(C)c1=S
→ i | -5%
> Cc1cc(S(=O)(=O)N(Cc2ccc(C(C)C)cc2)CC2CCCO2)ccc1-n1cnnn1 (stereo not given)
→ -20% | ?
> COc1ccc(C(C)=O)cc1CSc1nc(Nc2ccc(F)c(F)c2)c2ccccc2n1
→ -17% | -17%
> COC(=O)C1CCCCN1C(=O)c1ccc(OC2CCN(C(C)=O)CC2)c(OC)c1 (stereo not given)
→ i | -12%

Reformatted: results already given.
canonical_smiles,VACV mCherry inh,Vaccinia Venus
CCn1c(SCC(=O)OC)nc2cc(S(=O)(=O)N3CCOCC3)ccc21,-15%,-6%
Cc1ccc(Cn2ccc(NC(=O)c3cc(-c4ccco4)on3)n2)cc1,-13%,-4%
Cc1ccc2nc(NC(=O)C3CCN(S(=O)(=O)c4cccnc4)CC3)sc2c1,?,-28%
COc1cccc(CN(C)C(=O)c2ccc(S(=O)(=O)Nc3ccccc3F)cc2)c1OC,i,0%
CCC(Sc1nc2nccnc2c(=O)n1Cc1ccc(Cl)cc1)C(=O)NC1CCCCC1 (stereo not given),-8%,-10%

Going on with the list.
Order of results – VACV mCherry inh | Vaccinia Venus
> COc1ccccc1C(=O)NCC(=O)OC(C)C(=O)N1CCOCC1 (stereo not given)
→ -4% | 0%
> COC(=O)c1ccc(COc2ccc(C#N)cc2)o1
→ i | -6%
> COC(=O)[C@@]1(Cc2ccccc2)[C@H]2C(=O)N(Cc3ccccc3)C(=O)[C@H]2[C@H]2CN(C)C(=NCc3ccccc3)N21
→ -14% | 0%
> CC(=O)c1ccc2ccccc2c1OC(=O)c1ccncc1
→ i | -12%
> O=C(NC1CCC(n2cc(C(=O)NC3CC3)nn2)CC1)C(=O)c1ccccc1 (stereo not given)
→ -12% | -8%
> CCc1ccc(NC(=O)C(=O)NCCc2csc(-c3cccc(F)c3)n2)cc1
→ -13% | -9%
> COc1ccc(-c2cc(C(=O)N/N=C(\C)c3cccnc3)c3ccccc3n2)c(OC)c1
→ -16% | -29%
> CC1CCCN(CC(O)COC(c2ccccc2)c2ccccc2)C1 (stereo not given)
→ i | -15%
> Cc1ccc(C(C)(C)C)cc1S(=O)(=O)N1CC(=O)Nc2ccccc21
→ -10% | -19%
> O=C1c2cccc3cc(Br)cc(c23)C(=O)N1Nc1ccccc1
→ ? | ?
> O=C(C1CCN(S(=O)(=O)c2cnc[nH]2)CC1)N(CCc1ccccc1)Cc1ccccc1
→ -5% | -17%
> CSCCC(NC(=O)c1ccco1)C(=O)OCC(=O)N(Cc1ccccc1)C(C)(C)C (stereo not given)
→ -13% | -10%
> C#CC(C)(CC)NC(=O)c1cc(OC)c(OC)c(OC)c1 (stereo not given)
→ -16% | -9%
> CC1CCN(C(=O)C(C)Cl)CC1 (stereo not given)
→ -13% | -7%
> CCCCOC(=O)Cn1c(=N)n(CCC)c2ccccc21
→ · | 13%

2 entries picked at random from those above:
Order of results – VACV mCherry inh | Vaccinia Venus
> CSCCC(NC(=O)c1ccco1)C(=O)OCC(=O)N(Cc1ccccc1)C(C)(C)C (stereo not given)
→ -13% | -10%
> CC1CCCN(CC(O)COC(c2ccccc2)c2ccccc2)C1 (stereo not given)
→ i | -15%

(further entries)
Order of results – VACV mCherry inh | Vaccinia Venus
> O=C(COC(=O)c1n[nH]c2ccccc12)NC(=O)NCc1ccco1
→ ? | ?
> CC(C)CC(=O)Nc1ccc(C(=O)Cn2c(=O)oc3ccccc32)cc1
→ i | -10%
> COCCOc1cc(Nc2nnc(C(F)(F)F)s2)c(Cl)cc1Cl
→ -42% | ?
> Cc1ccc(C)c(C(=O)COC(=O)c2cc([N+](=O)[O-])ccc2NCCO)c1
→ -24% | -20%
> Cc1cccc(NS(=O)(=O)c2cccs2)n1
→ -14% | -6%
> CCN(CC(=O)Nc1c(F)cccc1F)C(=O)CSc1ccc(F)cc1
→ -2% | -15%
> C/C(=N\Nc1ccc(Cl)c(C(=O)O)c1)c1ccc[nH]1
→ i | -4%
> COc1ccccc1C(=O)N[C@@H]1c2ccccc2C2(CCN(Cc3c(O)cccc3OC)CC2)[C@H]1O
→ -17% | ?
> Cc1nc(-c2ccccc2)sc1C1(C)CC(c2ccccc2F)=NO1 (stereo not given)
→ 14% | -8%
> O=c1c(-c2cnn(-c3ccccc3)c2)coc2cc(O)ccc12
→ -8% | -5%
> COc1ccc(CNCCCO)cc1OC
→ -13% | 3%
> Nc1nc(CSc2nc3ccccc3[nH]2)nc(N2CCOCC2)n1
→ · | -14%
> CC1=NN(C(=O)c2ccccc2Cl)C(O)(c2cccnc2)C1 (stereo not given)
→ -8% | 2%
> C[C@@H](NC(=O)c1nc[nH]c1C(=O)N[C@H](C)c1ccccc1)c1ccccc1
→ -6% | -26%
> COc1ccccc1C(O)(c1ccccc1)C(CN1CCOCC1)c1ccccc1 (stereo not given)
→ -18% | -19%
> CCOc1ccc(C(=O)NNC2CC(=O)N(CCc3ccccc3)C2=O)cc1OC (stereo not given)
→ -8% | -8%
> CCOP(=O)(Cc1ccc(C#N)o1)OCC
→ i | 2%
> CC(=O)Nc1ccc(NC(=O)c2cc3sccc3n2Cc2ccc(Cl)cc2)cc1
→ -12% | -5%
> CCn1c(C)csc1=NC(=O)c1ccccc1O
→ -2% | -10%
> Cc1cccc(C)c1-n1nnnc1C(c1ccnc2ccccc12)N(C)Cc1ccc(Cl)c(Cl)c1 (stereo not given)
→ -23% | -23%
> C#CCOCCOCCOCCNc1nc(N2CCN(C(=O)[C@H](C(C)C)n3cc(CCO)nn3)CC2)nc(N2CCN(C(=O)[C@H]([C@@H](C)CC)n3cc(CCCN=C(N)N)nn3)CC2)n1
→ -1% | -7%
> CCSc1nnc(NC(=O)CSc2nccn2-c2cccc(C)c2C)s1
→ -19% | -18%
> COC(=O)c1sc(NC(=O)C2CCCCC2C(=O)O)c(C(=O)OC)c1C (stereo not given)
→ · | 6%
> Cc1cc(C)c(S(=O)(=O)NCCc2sc(-c3cccnc3)nc2C)c(C)c1
→ 2% | 0%
> CCSc1nc2c(cnn2-c2ccc(C)cc2)c(=O)[nH]1
→ -24% | -8%
> CC(=O)Oc1ccc(C(=O)Cc2ccccn2)c(O)c1
→ i | -12%
> Cc1nc2ccc(Oc3ccccc3)cc2s1
→ -13% | -18%
> O=C(Nc1ccc(Br)cc1F)c1cnn2c1NC(=C1CC1)C=C2C(F)F
→ -16% | -14%
> CCNC(=O)C1(C)CCN(C(=O)c2c(F)ccc(C)c2F)C1 (stereo not given)
→ i | 0%
> Cc1ccsc1C1Cc2c(C(=O)NCc3cccnc3)c(=O)cc(C)n2-c2ccccc2S1 (stereo not given)
→ -2% | 12%

Sorted by count of non-hydrogen atoms (falling): part of the list above
Order of results – VACV mCherry inh | Vaccinia Venus
> CCSc1nnc(NC(=O)CSc2nccn2-c2cccc(C)c2C)s1
→ -19% | -18%
> O=C1c2cccc3cc(Br)cc(c23)C(=O)N1Nc1ccccc1
→ ? | ?
> Cc1cccc(NS(=O)(=O)c2cccs2)n1
→ -14% | -6%

Continuation.
Order of results – VACV mCherry inh | Vaccinia Venus
> COC(=O)C1(Cc2cc(-c3cccnc3)no2)CCN(C(=O)OC(C)(C)C)CC1
→ -9% | -10%
> CCOC(=O)N1CCC(NC(=O)c2ccc3c(c2)N(Cc2cccc(C)c2)C(=O)c2ccccc2S3(=O)=O)CC1
→ ? | ?
> COc1cccc(C2C(C(=O)c3cc4ccccc4o3)=C(O)C(=O)N2CCN(C)C)c1OC (stereo not given)
→ 2% | -7%
> CC(=O)c1cccc(N2C(=NC(=O)C(C)C)SC3CS(=O)(=O)CC32)c1 (stereo not given)
→ -5% | -4%
> CC1(C)Oc2ccc(C(=O)N3CCCCC3)cc2N(CC(=O)NCc2ccccc2)C1=O
→ -1% | 10%
> CCOC(=O)N1CCN(C(=O)c2cccc(OC)c2OC)CC1
→ -13% | -8%
> O=C(CN1CCN(c2ccccc2)CC1)Nc1ccc(F)cc1
→ -14% | -12%
> CC1CCCN(S(=O)(=O)c2ccc(C(=O)Nc3nnc(-c4ccccn4)o3)cc2)C1 (stereo not given)
→ -1% | -10%
> COc1cc([N+](=O)[O-])ccc1NC(=O)COC(=O)c1c[nH]c(=O)[nH]c1=O
→ -14% | -9%
> CC(C)c1nc(CNC(=O)CCc2nnc(-c3ccsc3)o2)cs1
→ 4% | -8%
> COc1ccccc1-c1noc(CSc2nnc(-c3ccccc3)n2-c2ccc(C)c(C)c2)n1
→ -15% | -18%
> COc1ccc(S(=O)(=O)Nc2ncccn2)cc1
→ i | -10%
> O=C(Cn1cc(C(F)(F)F)ccc1=O)Nc1cc(S(=O)(=O)N2CCOCC2)ccc1Cl
→ -13% | -3%
> O=C1C=C(NC2=CC3OC(c4ccccc4)OCC3OC2=O)CCC1 (stereo not given)
→ ? | ?
> S=c1[nH]nc2c3c4c(sc3ncn12)CCCC4
→ -13%[1.46 µM] | -13%
> CC1(C)C(C=C(Cl)Cl)C1C(=O)Nc1ccc([N+](=O)[O-])cc1 (stereo not given)
→ ? | 18µM*
> C=CCn1c(C(C)NC(=O)CC)nc2ccccc21 (stereo not given)
→ i | -3%
> COc1ccc(-c2nc3c(c(SCC(=O)N4CCCCC4)n2)Cc2c(CO)cnc(C)c2O3)cc1
→ i | -8%
> CCNC(=O)c1cccc(NC(=O)CN2C(=O)NC3(CCCCC3)C2=O)c1
→ i | -12%
> Cc1ccc(-c2noc(CN(C3CCCCC3)S(=O)(=O)c3ccc(F)cc3)n2)cc1
→ -8% | -16%
> O=C(NC(CSC(=O)c1ccccc1)C(=O)O)OCc1ccccc1 (stereo not given)
→ -10% | -6%
> CCCOc1ccc(CN2CCOCC2)cc1OC
→ -6% | -10%
> CC(=O)C(Sc1ncnc2c1nnn2-c1ccc(F)cc1)C(=O)N(C)C (stereo not given)
→ · | -10%
> COc1cccc(CNc2nccs2)c1O
→ i | -5%
> CCOC(=O)c1c(C)[nH]c(C(=O)CN2CC(C)OC(C)C2)c1C (stereo not given)
→ -15% | -4%
> CCN1C(=O)/C(=C/c2cn(-c3ccccc3)nc2-c2cccnc2)SC1=S
→ i | 6%
> Cc1ccc(N(CC(=O)NC(C)(C)C)C(=O)CS(=O)CC(=O)Nc2ccc(F)cc2)cc1 (stereo not given)
→ -18% | -5%
> O=C1/C(=C/c2cccs2)SC(=S)N1CCCC(=O)N(CCO)c1ccccc1
→ -15% | -17%

Of the compounds above, these have a cyano group.
Order of results – VACV mCherry inh | Vaccinia Venus
> CC(=O)Nc1ccc(S(=O)(=O)CCC#N)cc1
→ -6% | 1%
> COC(=O)c1ccc(COc2ccc(C#N)cc2)o1
→ i | -6%
> CCOP(=O)(Cc1ccc(C#N)o1)OCC
→ i | 2%

High-throughput results deposited in PubChem by National Center for Advancing Translational Sciences (NCATS).
